UUG fidelity: alters start codon recognition fidelity in yeast. S. cerevisiae UUG-firefly luciferase reporter, luminescence/redox ratio. activity score, % at 18.7 µM. actives 0.13% (n = 350,000);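 active means replicate mean at a twofold rise or more, about +100% in these data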;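 further: firefly luciferase made from a UUG start codon reports start codon fidelity; reporter light over untreated wells divided by growth signal over untreated wells; some hits fall short of that in this replicate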
Starred values were filed as active, the others as inactive. Some of the compounds tested, so the mix of outcomes need not match the whole.

SMILES	UUG fidelity
O=C(C[C@@H]1CC[C@H]2[C@@H](COC[C@@H](O)CN2Cc2ccccc2F)O1)N[C@H]1CCN(Cc2ccccc2)C1	4
O=C(Nc1cccc(F)c1)N1C[C@@H]2[C@H](c3ccccc31)[C@H](CO)N2C(=O)c1cccnc1	0
CC(C)NC(=O)N1CCCCN2[C@H](CO)[C@@H](c3ccc(C#Cc4ccccc4)cc3)[C@H]2C1	11
O=C(C[C@@H]1CC[C@H]2[C@@H](COC[C@@H](O)CN2C(=O)c2ccc3c(c2)OCO3)O1)NC1Cc2ccccc2C1	2
C[C@@H](NC(=O)C[C@@H]1C[C@H]2c3cc(NC(=O)C4CCC4)ccc3O[C@H]2[C@@H](CO)O1)c1ccccc1	3
O=C(c1ccncc1)N1CC[C@H]2[C@H](CO)Nc3ccc(Br)cc3[C@H]21	0
CC(C)NC(=O)N(C)C[C@@H]1Oc2ccc(NC(=O)CCCN(C)C)cc2C(=O)N([C@H](C)CO)C[C@@H]1C	11
CCC(=O)Nc1ccc2c(c1)OC[C@@H](C)N(Cc1cccnc1)C[C@H](C)[C@@H](OC)CN(C)C2=O	-9
CO[C@H]1CN(C)C(=O)c2cc(NS(=O)(=O)c3cn(C)cn3)ccc2OC[C@H](C)N(Cc2cccc(F)c2)C[C@H]1C	-3
C/C=C/c1ccc([C@H]2[C@@H](CO)N3CCCCN(C(=O)Nc4ccccc4F)C[C@@H]23)cc1	15
COCC(=O)Nc1ccc2c(c1)C(=O)N(C)[C@H]1CC[C@@H](CC(=O)NC3Cc4ccccc4C3)O[C@@H]1CO2	-1
O=C(C[C@@H]1C[C@@H]2c3cc(NC(=O)NC4CCCC4)ccc3O[C@@H]2[C@@H](CO)O1)NCc1ccc(Cl)cc1	-11
OC[C@@H]1[C@H](c2ccc(C3=CCCC3)cc2)[C@H]2CN(Cc3cncnc3)CCCCN12	6
CCCNC(=O)C[C@@H]1CC[C@@H]2[C@H](COC[C@@H](O)CN2C(=O)C2CCOCC2)O1	-3
CCCN1[C@@H]2c3ccc(-c4ccccc4F)c(=O)n3C[C@H]1[C@H](CO)[C@H]2C(=O)NCCOC	-11
CC(C)N(C[C@@H]1[C@@H](c2ccccc2)[C@@H](CO)N1S(C)(=O)=O)C(=O)CN(C)C	4
O=C(C1CCOCC1)N1C[C@H]2[C@@H](c3ccccc31)[C@@H](CO)N2C(=O)Cc1ccccc1	-14
CC(C)NC(=O)N(C)C[C@H]1Oc2ccc(NC(=O)Nc3ccccc3)cc2CC(=O)N([C@H](C)CO)C[C@H]1C	-13
Cc1ccc(S(=O)(=O)N(C)C[C@H]2Oc3ccc(NC(=O)CCC(F)(F)F)cc3CC(=O)N([C@H](C)CO)C[C@@H]2C)cc1	9
OC[C@H]1[C@@H](c2ccc(-c3ccccc3)cc2)[C@@H]2CN(CCC(F)(F)F)CCCCN12	-3
CCCNC(=O)N1C[C@H](O)COC[C@@H]2O[C@H](CC(=O)N3CCOCC3)CC[C@H]21	-11
CCCNC(=O)C[C@H]1CC[C@H]2[C@@H](COC[C@H](O)CN2Cc2ccc(Cl)c(Cl)c2)O1	18
CO[C@H]1CN(C)C(=O)c2ccc(NS(=O)(=O)c3ccccc3)cc2OC[C@H](C)N(Cc2ccccn2)C[C@H]1C	45
COCC#Cc1ccc([C@@H]2[C@@H](CO)N3CCCCN(S(=O)(=O)c4cccc(OC)c4)C[C@@H]23)cc1	-14
COC(=O)C[C@@H]1CC[C@H]2[C@@H](COc3ccc(NC(=O)C4CCOCC4)cc3C(=O)N2C)O1	-1
CCNC(=O)C[C@H]1CC[C@H]2[C@H](COc3ccc(NC(=O)Nc4ccccc4Cl)cc3C(=O)N2C)O1	14
C/C=C/c1ccc([C@@H]2[C@@H](CN(CC(C)C)C(C)=O)N(C(C)=O)[C@H]2CO)cc1	32
CN(C)CC#Cc1ccc([C@H]2[C@@H](CO)N3CCCCN(C(=O)NC4CCCC4)C[C@H]23)cc1	18
CO[C@@H]1CN(C)C(=O)c2ccc(NC(C)=O)cc2OC[C@H](C)N(C(=O)c2ccncc2)C[C@H]1C	-3
C[C@@H]1CN([C@@H](C)CO)C(=O)c2cc(NS(=O)(=O)c3cn(C)cn3)ccc2O[C@H]1CN(C)Cc1ccc2c(c1)OCO2	-21

Compounds shown so far containing nitrogen in an aromatic ring, in the order listed:
SMILES	UUG fidelity
O=C(Nc1cccc(F)c1)N1C[C@@H]2[C@H](c3ccccc31)[C@H](CO)N2C(=O)c1cccnc1	0
O=C(c1ccncc1)N1CC[C@H]2[C@H](CO)Nc3ccc(Br)cc3[C@H]21	0
CCC(=O)Nc1ccc2c(c1)OC[C@@H](C)N(Cc1cccnc1)C[C@H](C)[C@@H](OC)CN(C)C2=O	-9
CO[C@H]1CN(C)C(=O)c2cc(NS(=O)(=O)c3cn(C)cn3)ccc2OC[C@H](C)N(Cc2cccc(F)c2)C[C@H]1C	-3
OC[C@@H]1[C@H](c2ccc(C3=CCCC3)cc2)[C@H]2CN(Cc3cncnc3)CCCCN12	6
CCCN1[C@@H]2c3ccc(-c4ccccc4F)c(=O)n3C[C@H]1[C@H](CO)[C@H]2C(=O)NCCOC	-11
CO[C@H]1CN(C)C(=O)c2ccc(NS(=O)(=O)c3ccccc3)cc2OC[C@H](C)N(Cc2ccccn2)C[C@H]1C	45
CO[C@@H]1CN(C)C(=O)c2ccc(NC(C)=O)cc2OC[C@H](C)N(C(=O)c2ccncc2)C[C@H]1C	-3
C[C@@H]1CN([C@@H](C)CO)C(=O)c2cc(NS(=O)(=O)c3cn(C)cn3)ccc2O[C@H]1CN(C)Cc1ccc2c(c1)OCO2	-21

Remaining list, next part.
SMILES	UUG fidelity
CCC(=O)N1[C@H](CO)[C@H](c2ccc(C3=CCCC3)cc2)[C@@H]1CN(C)C(C)=O	9
CO[C@H]1CN(C)C(=O)c2ccc(NC(=O)c3cnccn3)cc2OC[C@@H](C)N(C(=O)C2CC2)C[C@@H]1C	-11
COc1cccc(C(=O)Nc2ccc3c(c2)C(=O)N(C)C[C@@H](OC)[C@H](C)CN(C(=O)C2CC2)[C@H](C)CO3)c1	11
CC(C)NC(=O)N1[C@H](CO)[C@@H](c2ccccc2)[C@@H]1CN(C)C(=O)c1ccncc1	-17
COCC#Cc1ccc([C@H]2[C@@H](CO)N3CCCCN(S(=O)(=O)c4ccc(OC)cc4)C[C@@H]23)cc1	15
CNC(=O)C[C@H]1CC[C@@H]2[C@H](COC[C@@H](O)CN2C(=O)Nc2ccc(Cl)c(Cl)c2)O1	2
O=C(C[C@H]1CC[C@@H]2[C@H](COC[C@@H](O)CN2C(=O)Nc2cccc(Cl)c2)O1)NCC1CCCCC1	0
CO[C@H]1CN(C)C(=O)c2cc(NS(=O)(=O)c3ccccc3)ccc2OC[C@@H](C)N(Cc2nccs2)C[C@@H]1C	0
Cc1ccc(-c2ccc([C@H]3[C@@H](CO)N4CCCCN(C(=O)Nc5ccccc5)C[C@H]34)cc2)cc1	-2
C[C@H]1CN([C@@H](C)CO)C(=O)c2cccc(NC(=O)C3CCCCC3)c2O[C@H]1CN(C)S(=O)(=O)c1ccccc1	-4
C[C@H](CO)N1C[C@H](C)[C@@H](CN(C)C(=O)Nc2ccc(F)cc2)Oc2ccc(NC(=O)Cc3ccccc3)cc2C1=O	3
CO[C@@H]1CN(C)C(=O)c2ccc(NC(=O)C3CCC3)cc2OC[C@@H](C)N(Cc2cccnc2)C[C@@H]1C	-8
CCCNC(=O)C[C@H]1CC[C@H]2[C@@H](COC[C@@H](O)CN2C(=O)Nc2ccc3c(c2)OCO3)O1	-6
CC(C)NC(=O)Nc1ccc2c(c1)CC(=O)N([C@@H](C)CO)C[C@H](C)[C@H](CN(C)S(=O)(=O)c1ccc(Cl)cc1)O2	-3
OC[C@H]1[C@H](c2ccc(-c3ccc(F)cc3)cc2)[C@@H]2CN(CCC(F)(F)F)CCCCN12	11
Cc1nn(C)cc1NC(=O)C[C@@H]1CC[C@@H]2[C@@H](COc3ccc(NC(=O)Nc4cccc(Cl)c4)cc3C(=O)N2C)O1	-15
COc1ccc(NC(=O)Nc2ccc3c(c2)CC(=O)N([C@H](C)CO)C[C@H](C)[C@@H](CN(C)C)O3)cc1	17
C[C@@H]1CN([C@@H](C)CO)C(=O)c2cccc(NC(=O)NC3CCCCC3)c2O[C@@H]1CN(C)C(=O)Nc1ccccc1	32
CC(C)NC(=O)N1C[C@@H]2[C@H](c3ccccc31)[C@@H](CO)N2C(=O)c1ccccc1F	-2
C[C@H]1CN([C@@H](C)CO)C(=O)c2cccc(NC(=O)Nc3ccc(C(F)(F)F)cc3)c2O[C@@H]1CN(C)C	-16
C[C@@H](O)C#Cc1ccc([C@H]2[C@@H](CO)N3CCCCN(CC4CCOCC4)C[C@@H]23)cc1	1
C[C@@H]1CN([C@H](C)CO)C(=O)c2cccc(NC(=O)NC3CCCCC3)c2O[C@H]1CN(C)S(=O)(=O)c1cccs1	-3
O=C(Nc1ccc(F)cc1)N1CCCCN2[C@H](CO)[C@H](c3ccc(-c4cccc(F)c4)cc3)[C@H]2C1	19
C[C@H]1CN([C@@H](C)CO)C(=O)Cc2cc(NC(=O)CCN3CCOCC3)ccc2O[C@@H]1CN(C)S(=O)(=O)c1ccc(F)cc1	19
Cc1cc(C(=O)Nc2cccc3c2O[C@H](CN(C)C(=O)Nc2ccc4c(c2)OCO4)[C@H](C)CN([C@@H](C)CO)C3=O)n(C)n1	-3
CN(C)C(=O)C[C@@H]1CC[C@@H]2[C@H](COc3ccc(NC(=O)C4CC4)cc3C(=O)N2C)O1	-12
CO[C@@H]1CN(C)C(=O)c2cc(NC(=O)C3CCCCC3)ccc2OC[C@H](C)N(Cc2cccnc2)C[C@H]1C	3
CC(=O)N1CCCCN2[C@H](CO)[C@H](c3ccc(-c4ccc(C)cc4)cc3)[C@H]2C1	-8
O=C(C[C@@H]1CC[C@@H]2[C@H](COC[C@H](O)CN2C(=O)c2ccccc2F)O1)N1CCN(c2ccccc2)CC1	16
OC[C@H]1[C@@H](c2ccc(-c3ccc(F)cc3)cc2)[C@H]2CN(Cc3ccncc3)CCCCN21	-14
CO[C@H]1CN(C)C(=O)c2cc(NS(=O)(=O)CC(F)(F)F)ccc2OC[C@H](C)N(Cc2cccnc2)C[C@H]1C	-13
CCNC(=O)Nc1ccc2c(c1)C(=O)N(C)[C@@H]1CC[C@@H](CC(=O)NC3CCCCC3)O[C@H]1CO2	11
CCCNC(=O)N1C[C@@H](O)COC[C@@H]2O[C@@H](CC(=O)N3CCCCC3)CC[C@H]21	-4
OC[C@@H]1[C@H](c2ccc(C#Cc3ccccc3)cc2)[C@H]2CN(Cc3cncnc3)CCCCN12	13
C[C@H]1CN([C@@H](C)CO)C(=O)c2cccc(NC(=O)c3cnccn3)c2O[C@H]1CN(C)C(=O)Nc1ccc2c(c1)OCO2	12
O=C(c1ccccc1F)N1CC[C@H]2[C@H](CO)Nc3ccc(-c4ccccc4)cc3[C@H]21	11
COc1ccc(S(=O)(=O)N(C)C[C@H]2Oc3ccc(NC(=O)Nc4c(C)noc4C)cc3C(=O)N([C@H](C)CO)C[C@H]2C)cc1	7
C[C@H](CO)N1C[C@H](C)[C@H](CN(C)Cc2ccc(C(F)(F)F)cc2)Oc2c(NC(=O)Nc3cccc4ccccc34)cccc2C1=O	7
CN1c2ccc(-c3cccc(F)c3)cc2[C@H]2[C@H](CCN2C(=O)C2CCOCC2)[C@@H]1CO	-11
C[C@H](CO)N1C[C@H](C)[C@@H](CN(C)S(=O)(=O)c2cccs2)Oc2c(NC(=O)Nc3cccc4ccccc34)cccc2C1=O	-7
COCC(=O)N1[C@H](C(=O)Nc2ccccc2)[C@@H](CO)[C@@H]2Cn3c(ccc(-c4ccccc4)c3=O)[C@@H]21	2
CC(C)NC(=O)Nc1ccc2c(c1)C(=O)N([C@H](C)CO)C[C@H](C)[C@@H](CN(C)Cc1ccncc1)O2	-14
OC[C@@H]1[C@@H](c2ccc(C#CC3(O)CCCC3)cc2)[C@H]2CN(Cc3ccncc3)CCCCN12	8
C[C@H](O)C#Cc1ccc([C@H]2[C@@H](CO)N3CCCCN(C(=O)Nc4ccccc4)C[C@@H]23)cc1	3
Cc1ccc(S(=O)(=O)N(C)C[C@H]2Oc3ccc(NC(=O)Nc4ccc(C(F)(F)F)cc4)cc3C(=O)N([C@@H](C)CO)C[C@@H]2C)cc1	-18
C[C@@H](NC(=O)[C@@H]1[C@@H](CO)[C@@H]2Cn3c(cccc3=O)[C@@H]2N1CC1CC1)c1ccccc1	-4
CC(=O)N1C[C@H]2[C@@H](c3ccccc31)[C@@H](CO)N2S(=O)(=O)c1ccccc1	-11
CO[C@@H]1CN(C)C(=O)c2ccc(NS(C)(=O)=O)cc2OC[C@H](C)N(C(=O)C2CC2)C[C@@H]1C	32
CO[C@H]1CN(C)C(=O)c2ccc(NC(=O)C3CCCCC3)cc2OC[C@H](C)N(Cc2nccs2)C[C@@H]1C	42
Cc1cccc(S(=O)(=O)N2C[C@@H]3[C@H](c4ccccc42)[C@H](CO)N3CC2CCCC2)c1	1
Further entries.
SMILES	UUG fidelity
CO[C@@H]1CN(C)C(=O)c2ccc(NS(=O)(=O)c3ccc(C)cc3)cc2OC[C@@H](C)N(Cc2nccs2)C[C@@H]1C	-1
COCC(=O)Nc1ccc2c(c1)C(=O)N(C)C[C@@H](OC)[C@H](C)CN(C(=O)C1CCCC1)[C@@H](C)CO2	-5
COc1ccc(C(=O)N2C[C@H]3[C@@H](c4ccccc42)[C@H](CO)N3C(=O)NC(C)C)cc1	5
CC(C)NC(=O)N(C)C[C@@H]1Oc2ccc(NS(=O)(=O)c3ccc(Cl)cc3)cc2CC(=O)N([C@@H](C)CO)C[C@@H]1C	-7
CCCC#Cc1ccc([C@@H]2[C@H](CO)N3CCCCN(Cc4ccncc4)C[C@@H]23)cc1	6
CC(C)NC(=O)N(C)C[C@@H]1Oc2ccc(NS(=O)(=O)c3ccc(Cl)cc3)cc2C(=O)N([C@@H](C)CO)C[C@@H]1C	8
CN1CCN(C(=O)C[C@H]2CC[C@@H]3[C@H](COC[C@@H](O)CN3C(=O)C3CCCC3)O2)CC1	-6

Assay outcomes as filed in PubChem.
